# Assay outcomes as filed in PubChem.
# SARS PLpro yeast = qHTS of Yeast-based Assay for SARS-CoV PLP; S. cerevisiae expressing SARS-CoV PLpro, growth rescue; control for the full effect not named in the record; AID 485353, 2010; 330,000 compounds, 0.19% hits; Potency, µM (top dose mostly 32.9 µM), for inactives: at the highest dose activity, positive = growth rescue; also: 0% is about no effect; nearly all actives have a fitted effect of over 55% in size; growth read by luminescence after 48 h
# Lassa entry inh = qHTS for Inhibitors of binding or entry into cells for Lassa Virus; 300,000 compounds, 1.2% hits; Lassa virus pseudotype entry inhibition, cell reporter; control for the full effect not named in the record; Potency, µM (titrated, usually from 37.9 µM), inactives show at the highest dose activity change, negative = inhibition, hits mostly inhibitors; AID 540256, 2011; active means well fitted inhibition curve with a large enough effect; inconclusive means small, poorly fitted or top-dose-only effect, or effect the other way; inactive means flat fitted curve, though single readings scatter; tested in HEK293 cells; also: % is scaled to controls: 0 for no effect and ±100 for the full control effect; nearly all actives have a fitted effect of over 50% in size; luciferase read-out
# StopGo reporter = High Throughput Screening for Foot and Mouth Disease Virus Antivirals. human cells with a luciferase reporter of 2A StopGo recoding; control for the full effect not named in the record. AID 1159524, 2015. 410,000 compounds, 1.2% hits. Potency, µM (series often up to 57.9 µM), for the others: at the highest dose signal change, negative = less light; active = well fitted falling curve with a large enough effect; inconclusive = small, poorly fitted or top-dose-only effect; inactive = no such curve, though single readings can be large or run the other way; tested in HEK293T cells; also: % is scaled to controls: 0 for no effect and ±100 for the full control effect; nearly all actives have a fitted effect of over 45% in size; luciferase light after 4 h
# Cruzain inh Det = qHTS Assay for Promiscuous and Specific Inhibitors of Cruzain (with detergent); 200,000 compounds, 0.43% hits; Potency, µM, without a hit: max response, negative = inhibition, hits mostly inhibitors; purified cruzain, Z-FR-AMC fluorescence, 0.01% Triton; Cruzipain (Trypanosoma cruzi), P25779; AID 1478, 2009; active = well fitted curve in the direction sought with a large enough effect; inconclusive = small, poorly fitted or top-dose-only effect, or another doubt; inactive = no such curve, though single readings can be large; an effect the other way counts as inactive or inconclusive;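 also: plate controls were neutral wells for no effect and buffer without enzyme for full effect; nearly all actives have a fitted effect of over 40% in size; top concentration of the series not given in the record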
# Target sequence (P25779 123-467 limits assumed): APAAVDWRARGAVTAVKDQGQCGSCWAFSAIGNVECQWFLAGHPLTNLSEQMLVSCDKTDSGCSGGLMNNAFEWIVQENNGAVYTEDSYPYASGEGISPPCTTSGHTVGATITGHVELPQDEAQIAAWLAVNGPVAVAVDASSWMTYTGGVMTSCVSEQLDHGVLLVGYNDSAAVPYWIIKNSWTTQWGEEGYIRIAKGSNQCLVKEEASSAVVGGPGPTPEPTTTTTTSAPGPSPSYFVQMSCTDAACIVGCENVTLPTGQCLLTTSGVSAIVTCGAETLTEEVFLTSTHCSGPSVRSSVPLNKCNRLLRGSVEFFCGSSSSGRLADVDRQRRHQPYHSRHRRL
#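 15 min RT preincubation of 1.5 nM cruzain with compound, then 2 uM Z-FR-AMC added; kinetic AMC fluorescence, 60 s delta. Triton X-100 0.01%, pH 5.5.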
# Cruzain inh noDet = qHTS Assay for Promiscuous and Specific Inhibitors of Cruzain (without detergent). Cruzipain (Trypanosoma cruzi), P25779. Potency, µM, for the others: max response, negative = inhibition, most hits filed as inhibitors. purified cruzain, Z-FR-AMC fluorescence, no detergent. 200,000 compounds, 2.3% hits; active = well fitted curve in the direction sought with a large enough effect; inconclusive = small, poorly fitted or top-dose-only effect, or another doubt; inactive = no such curve, though single readings can be large; an effect the other way counts as inactive or inconclusive;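 also: plate controls were enzyme without inhibitor for no effect and buffer without enzyme for full effect; nearly all actives have a fitted effect of over 40% in size; top concentration of the series not given in the record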
#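 Purified cruzain at 1.5 nM, pre-incubated 15 min with compound at room temperature in 100 mM sodium acetate pH 5.5, 5 mM DTT, 0.00005% Triton X-100. Reaction started with 2 uM Z-FR-AMC; AMC fluorescence increase over 60 s gives rate.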
# MARV entry inh = qHTS for inhibitors of binding or entry into cells for Marburg Virus. AID 540276, 2011. 300,000 compounds, 1.8% hits. Marburg virus pseudotyped entry inhibition, cell reporter; control for the full effect not named in the record; about a third of the inactives were read at about 46 µM. Potency, µM (titrated, usually from 37.8 µM), for inactives: at the top dose activity change, negative = inhibition, most hits filed as inhibitors; active = well fitted inhibition curve with a large enough effect; inconclusive = small, poorly fitted or top-dose-only effect, or effect the other way; inactive = flat fitted curve, though single readings scatter; tested in HEK293 cells; about a fifth of its hits are not listed in these tables; also: % is scaled to controls: 0 for no effect and ±100 for the full control effect; luciferase read-out
# NS1 inh = qHTS Assay for Inhibitors of Influenza NS1 Protein Function; S. cerevisiae slowed by influenza A NS1, growth recovery by OD600; Potency, µM (series often up to 46.1 µM), inactives show top-dose activity, positive = more growth; 270,000 compounds, 0.4% hits; AID 2326, 2010; also: actives are rising curves; nearly all actives have a fitted effect of over 50% in size
#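 Compounds were scored for reversing the slow growth caused by influenza A NS1 in S. cerevisiae, measured by optical density at 600 nm. Assay medium contained 2% galactose at pH 6.0; NS1-free yeast of the same strain were the positive control.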
# RE007 growth inh = qHTS Assay for Inhibitors of the HIV-1 protein Vpr | S. pombe RE007 Vpr strain, BacTiter-Glo ATP luminescence, 24 h; control for the full effect not named in the record | Potency, µM (top dose mostly 92.2 µM), without a hit: at the highest dose activity change, negative = less growth | 360,000 compounds, 0.21% hits | AID 651644, 2012; active = well fitted falling curve with a large enough effect; inconclusive = small, poorly fitted or top-dose-only effect; inactive = no such curve, though single readings can be large or run the other way;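 also: % is scaled to controls: 0 for no effect and ±100 for the full control effect; nearly all actives have a fitted effect of over 50% in size; the assay follows cell death caused by Vpr and the record does not say whether a fall means rescue or toxicity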
#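 Fission yeast strain RE007, carrying one chromosomally integrated HIV-1 vpr copy, was seeded at OD 0.01 in PMG+AL medium with 23 nL pinned compound. After 24 h at 30 °C and 99% humidity, viability was read by BacTiter-Glo luminescence.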
# An asterisk follows results filed as active; ? = inconclusive; nt = no result given; [ ] = remark or other dose. Unless noted, calls follow the shape of the dose curve; as a rule, active means well fitted rising curve with a large enough effect; inconclusive means small, poorly fitted or top-dose-only effect; inactive means no such curve, though single readings can be large or run the other way. Potency is read from the fitted curve at half-maximal effect.
SMILES,SARS PLpro yeast,Lassa entry inh,StopGo reporter,Cruzain inh Det,Cruzain inh noDet,MARV entry inh,NS1 inh,RE007 growth inh
CCCn1c(C(C)Nc2nc(-c3ccc(OC)cc3)cs2)nc2ccccc21 (stereo not given),-3%,nt,-21%,nt,nt,nt,15%,1%
O=C(O)CCCC(=O)Nc1cccc(-c2nc3ccccc3[nH]2)c1,2%,13%,17%,1.2%,-3%,11%,-3%,-18%
CC(C)(C)NC(=O)c1ccc(COCC(F)(F)F)o1,nt,-10%,nt,2.4%,0%,6%,-11%,-3%
CC(C)c1ccc(C2=NN(c3ccccc3)C(=O)CC2)cc1,-31%,?,11%,-7.1%,10%,4%,-16%,-13%
CCCCCOC(=O)CSc1nc2sc3c(c2c(=O)n1-c1ccccc1)CC(C)(CC)OC3 (stereo not given),nt,-27%[46.1 µM],2%,-6.6%,-7%,nt,nt,nt
O=C(Cn1cc(C(F)(F)F)ccc1=O)N/N=C/c1ccccc1,0%,1%,-8%,nt,nt,?,nt,-1%
O=C(c1ccco1)N1CCN(Cc2cc(=O)c(OCc3cccc(F)c3)co2)CC1,-2%,12%,11%,nt,nt,?,nt,-19%
O=C(NCC1CCCO1)c1ccc(Br)o1 (stereo not given),0%,-13%,9%,nt,nt,-2%[46.1 µM],5%,-20%
O=C(Nc1ccc(NC(=O)c2cccs2)cc1)c1ccc2c(c1)OCCO2,-1%,nt,-14%,nt,nt,nt,8%,-7%
CC1=CC(C)(C)Nc2ccc(OC(=O)CN3C(=O)CCC3=O)cc21,1%,?,nt,2.6%,1%,?,0%,-19%
Cc1ccc(NC(=O)c2cc(-c3ccc(C)c(C)c3O)n[nH]2)cc1C,-5%,-1%,-7%,nt,nt,-38%,5%,-8%
N#CCC(=O)N/N=C\c1cccc(OC/C=C/c2ccccc2)c1,-5%,?,11%,nt,nt,?,27%,2%
Cc1ccc(C(=O)NCCC(=O)Nc2ccccc2C)cc1,1%,-2%,0%,nt,nt,?,3%,4%
CC1CNCCN1c1ccc(Cl)cc1 (stereo not given),nt,?,3%,nt,nt,10%,nt,-3%
NS(=O)(=O)c1ccc(NC(=S)N2CCN(S(=O)(=O)c3ccc(F)cc3)CC2)cc1,7%,0%,nt,-7.5%,4%,20%,-27%,nt
CC(C)NC(=O)COC(=O)/C=C/c1ccc(F)cc1,?,9%,18%,0.6%,-5%,15%,6%,-15%
Cc1ccc([N+](=O)[O-])cc1/C=N/Nc1nnnn1-c1ccccc1,8%,28%,nt,0.9%,-10%,-4%,2%,5%
CC(=O)Nc1nc(N2C(=O)c3ccccc3C2=O)n(-c2ccccc2)n1,-1%,8%,-7%,2.9%,2%,0%,7%,-8%
Cc1cc(C)n(C2CC(=O)N(c3ccc(C)c(Cl)c3)C2=O)n1 (stereo not given),2%,nt,-19%,nt,nt,nt,7%,3%
Cc1c(NC(=O)c2nc3ccccc3n(C)c2=O)cccc1[N+](=O)[O-],nt,7%[46.1 µM],-3%,1.1%,-2%,7%[46.1 µM],nt,nt
Cc1ccccc1C(=O)Nc1ccc2c(c1)OCCO2,-7%,nt,-21%,nt,nt,nt,-11%,11%
COc1ccc2cc(CN(C(=O)Nc3ccccc3OC)C3CCCC3)c(=O)[nH]c2c1,2%,?,-20%,-7.5%,-14%,8.9µM*,5%,-4%
CCCCn1nnc(NC(=O)Cc2ccc(Cl)cc2)n1,-2%,-1%,-4%,8.5%,2%,23%,-8%,29%
Cn1c(CCNC(=O)c2ccccc2F)nnc1SCc1nc2ccccc2c(=O)[nH]1,0%,3%,5%,-2.6%,-15%,3%,6%,-19%
COC(=O)c1c(-c2cccs2)csc1NC(=O)c1cccc(Cl)c1,nt,14%[46.1 µM],42%[activator],-2.0%,-13%,?,nt,nt
CCCOC(=O)c1ccc(NC(=O)Cn2nnc3sc4c(c3c2=O)CCC(C(C)(C)C)C4)cc1 (stereo not given),nt,1%[46.1 µM],-19%,-2.7%,?,?,nt,nt
O=C1NCCCN1Cc1ccc(Cl)cc1,-1%,13%,-11%,nt,nt,?,1%,3%
COc1ccccc1CC(=O)Nc1cccc(C)n1,-1%,6%[46.1 µM],27%,nt,nt,28%[46.1 µM],-2%,14%
CC1CC(C)CN(CCCNC(=O)CCNC(=O)Cn2cnc3ccccc3c2=O)C1 (stereo not given),-7%,15%,-7%,nt,nt,-4%[46.1 µM],-3%,20%
CCn1c(N2CCN(S(=O)(=O)c3ccc(OC)cc3)CC2)nc2ccccc21,-2%,8.9µM*,?,nt,nt,?,-64%,-13%
CC(C)C(=O)Nc1ccc(NC(=O)CCc2ccccc2)cn1,-1%,-19%,7%,nt,nt,?,-3%,6%
CCc1cccc2c(-c3ccc(F)cc3)nc(SCC(=O)Nc3ccccc3)nc12,nt,12%[46.1 µM],-8%,1.8%,-6%,19%[46.1 µM],nt,nt
CCCCOc1ccc(S(N)(=O)=O)cc1,3%,-19%,16%,2.5%,-3%,?,-5%,0%
CCOC(=O)c1cc(-c2csc(COc3ccccc3Cl)n2)on1,0%,0%,1%,nt,nt,-29%,-6%,-13%
CCN(CC)S(=O)(=O)c1ccc(C(=O)Nc2ccc3c(c2)OCCO3)cc1,-6%,?,?,0.3%,-11%,7%,-6%,1%
CC1CN(c2ccccc2)CCN1Cc1nc(Cc2ccccc2)no1 (stereo not given),-1%,-24%[46.1 µM],-19%,nt,nt,6%[46.1 µM],-2%,-16%
Cc1ccccc1OCC(=O)N/N=C/c1ccco1,-10%,20%,26%,2.6%,-5%,15%,-27%,3%
Cc1csc2nc(CNS(=O)(=O)c3ccc4c(c3)CCCC4)cn12,0%,nt,0%,1.0%,-1%,nt,-9%,-8%
Cc1ccc(C)n1-c1ncn[nH]1,-14%,5%,6%,4.9%,16%,1%,?,5%
CCOC(=O)CNC(=O)C1Cc2ccccc2CN1S(=O)(=O)c1cccs1 (stereo not given),0%,-4%,1%,nt,nt,?,-5%,-4%
O=C(O)CCN1C(=O)c2ccc(NC(=O)Cc3ccc(Cl)cc3)cc2C1=O,-2%,2%[46.1 µM],6%,nt,nt,3%[46.1 µM],-3%,9%
CC(CN(C)Cc1nc(Cc2cccc(C(F)(F)F)c2)no1)CN1CCCC1 (stereo not given),1%,-3%,-16%,nt,nt,?,1%,0%
COc1ccccc1NC(=O)Cc1nnc(SCC(=O)NC2CCCCC2C)n1C (stereo not given),-1%,-2%[46.1 µM],-13%,nt,nt,19%[46.1 µM],6%,11%
Cc1cc(C)n(CC(=O)NCc2ccccc2)c(=O)c1C#N,1%,nt,-7%,nt,nt,nt,-1%,-9%
CCN1CCc2c(sc(NC(=O)C3CCCCC3)c2C(=O)OC)C1,2%,nt,-13%,nt,nt,nt,-2%,8%
Cc1ccc2c(c1)c1c(c(=O)n(-c3cccc(Cl)c3)c(=O)n1CC(=O)Nc1c(C)cccc1C)n2C,nt,-17%[46.1 µM],-5%,-0.2%,-8%,4%[46.1 µM],nt,nt
O=C(CSc1nc2ncccc2[nH]1)Nc1c(F)cc(F)cc1Br,-4%,nt,-5%,nt,nt,nt,8%,11%
Cc1cc(N)n2nc(-c3ccc(C(C)(C)C)cc3)cc2n1,-37%,?,-9%,-11%,-3%,?,-140%,?
CC(=O)c1c(C)c2c(n1CCN(C)C)CCCC2,4%,4%,-19%,-1.8%,-9%,?,6%,-3%
COc1ccc(S(=O)(=O)NCCSCc2ccccc2C)cc1Br,-23%,?,0%,-4.4%,1%,-8%,18%,-12%
# Next part
SMILES,SARS PLpro yeast,Lassa entry inh,StopGo reporter,Cruzain inh Det,Cruzain inh noDet,MARV entry inh,NS1 inh,RE007 growth inh
Cc1ccc(C(=O)COC(=O)CNS(=O)(=O)c2ccccc2)cc1[N+](=O)[O-],2%,4%,-16%,?,?,-2%,-4%,-3%
CCCC(=O)Nc1cccc(Oc2ccc3c(c2)C(=O)NC3=O)c1,6%,nt,11%,nt,nt,nt,17%,22%
Cc1ccc(CN2CCN(Cc3ccccc3)C(CCO)C2)s1 (stereo not given),0%,nt,-19%,nt,nt,nt,-1%,-1%
CCc1nn(CC(=O)N2CCC(C(N)=O)CC2)c(=O)c2cc3occc3n12,1%,nt,0%,nt,nt,nt,8%,9%
CCN(CC)CCn1c(=N)n(CC(O)COc2ccccc2)c2ccccc21 (stereo not given),0%,6%,-24%,nt,nt,4.5µM*,1%,-12%
O=C(O)c1nccnc1C(=O)Nc1ccc(Cl)cc1Cl,0%,nt,-23%,nt,nt,nt,4%,13%
CSCC[C@H](NC(=O)c1cccc(S(=O)(=O)N2CCCCCC2)c1)c1nc2ccccc2[nH]1,-3%,?,-8%,nt,nt,?,nt,-13%
CC(C)N1CC(C(=O)O)CC1=O (stereo not given),0%[6.58 µM],10%,nt,3.4%,4%,9%,3%,5%
COc1ccc(N2CCOCC2)c(NC(=O)c2cccnc2)c1,0%,nt,20%,nt,nt,nt,-5%,9%
CCCc1nc2sc3c(SCC(=O)NCc4ccco4)ncnc3c2c2c1CCC2,5%,-29%,2%,-28%,?,?,4%,4%
COc1ccccc1NC(=O)Oc1ccc(C(C)=O)cc1,1%,?,-20%,2.4%,-3%,14%[46.1 µM],-24%,-18%
O=C(CSc1nc2ccc(N3CCOCC3)cc2c(=O)n1CCc1ccccc1)NCC1CCCO1 (stereo not given),-6%,?,17%,nt,nt,-4%[46.1 µM],nt,3%
CN(c1ccc(OCC(=O)OCC(=O)Nc2ccccc2F)cc1)S(=O)(=O)c1cccs1,-7%,19%,-8%,-1.6%,-4%,25%,-39%,2%
NS(=O)(=O)c1ccc(NC(=O)c2ccc3nccnc3c2)cc1,0%,-11%,-13%,nt,nt,7%[14.2 µM],0%,2%
O=C(O)C1CCN(S(=O)(=O)/C=C/c2ccccc2)CC1,5%,-1%,nt,0.9%,3%,9%,0%,6%
NCCOc1ccccc1Cc1ccccc1,-2%,-28%,-9%,2.9%,1%,?,9%,-9%
